# Sa RN4220 lethal: S. aureus RN4220 growth inhibition; OD600, 16 h; inhibition, % (concentration not given with the values); actives 0.33% (n = 330,000);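 active means z-score of -3 or lower and OD600 up to 0.18 on both plates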;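 further: plate controls were untreated cells for no effect and reference antibiotic for full effect; stock transfer was 100 nL into about 80 µL; one replicate is shown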
# Mtb hypoxia rep: inhibitors of hypoxia-regulated fluorescent reporter in Mycobacterium tuberculosis; M. tuberculosis hypoxia-regulated fluorescent reporter, fluorescence; fluorescence inhibition, % (test concentration not listed); actives 0.1% (n = 300,000); AID 1159583;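 active means 35 to 45% if threefold the growth effect, above 45% if 1.5-fold the growth effect; inactive means the rest, general growth blockers included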;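 further: wells of about 50 µL received 100 nL stock; 0% = vehicle wells and 100% = reference inhibitor wells; whole bacteria with a GFP reporter of the hypoxia response; strong numbers were not always called active; many hits fall short of the cut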
# ugtP null kill: compounds lethal to S. aureus RN4220 ugtP deletion mutant. OD600 growth, 16 h; some inactives read as strong as hits. growth inhibition, % (test concentration not listed). actives 0.54% (n = 330,000). AID 1259309;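 active means z-score under -3 and OD600 up to 0.15 on both plates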;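 further: plate controls were untreated wells for no effect and antibiotic for full effect; wells of about 80 µL received 100 nL stock; the first replicate is given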
# Autofluor counter: counter-screen for toxin protease inhibitors: compound fluorescence. actives 3.1% (n = 360,000). compound autofluorescence counterscreen, microsphere flow cytometry; hits give high values. fluorescence intensity (test concentration not listed). AID 624483;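 active means at least 3 SD above the mean of all compounds, about 16000 in these data; inconclusive means too few beads counted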;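 further: 100 nL of 1 mM stock went into each well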
# PrP 5UTR inh: inhibition of PrP 5' UTR reporter expression; cell-based PrP 5' UTR mRNA reporter, plate reader; inhibition, % (no concentration beside the values); actives 0.35% (n = 340,000);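 active means every replicate at 50% or more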;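 further: 0 = median of the neutral control wells; tested in H4 reporter cells; numbers are from one replicate; inactives centre near -14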
# BJeLR viability: kills HRASV12-expressing BJeLR cells; inhibition, % (no concentration beside the values); AID 1554; actives 0.17% (n = 300,000); BJeLR (HRASV12) viability, CellTiter-Glo ATP luminescence, 48 h; reference of the scale not given here;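 active means replicate mean above 50%; inconclusive means above 50% but judged a plate artefact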;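 further: 50 nL library stock added to about 25 µL; numbers are from one replicate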
# Mtb hypoxia rep growth: recorded beside Mtb hypoxia rep, whose call it bears; growth inhibition, %; measured here: M. tuberculosis growth (absorbance);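 0% = vehicle and 100% = reference antibiotic; read after six days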
# * hit, by the source's call; ? = inconclusive; . = not tested or not shown; & = joins results of further samples.
# Under each structure: Mtb hypoxia rep	PrP 5UTR inh	BJeLR viability	Mtb hypoxia rep growth	ugtP null kill	Autofluor counter	Sa RN4220 lethal
COC(=O)C1C(=O)C=C(Nc2ccc(F)cc2)CC1c1ccc(OC)cc1 (centres undefined)
 : 10	-41	-1	3	3	7874	5.7
COc1cc(OC)cc(C(=O)Nc2ccc3c(c2)OCCO3)c1
 : -2	-36	13	3	6	3801	0.7
Cc1occc1C(=O)NCCCCc1ccccc1
 : .	-16	5	.	5	5138	-7.0
COc1ccc(CCC(=O)N2CCN(S(=O)(=O)c3ccc4ccccc4c3)CC2)cc1
 : 5	0	-6	7	-4	?	5.7
COc1ccc(S(=O)(=O)Nc2ccc(-c3ccc(N4CCCC4)nn3)cc2)cc1C
 : 10	-36	4	14	2	5591	1.7
Cc1ccc(CNC(=O)CCCC(=O)Nc2cc(C)on2)cc1
 : -1	-10	-7	3	-3	3633	2.0
Nc1c(Cl)cnc(C(Cl)(Cl)Cl)c1Cl
 : 0	-18	7	6	2	4652	10
CCN(CC)S(=O)(=O)c1cccc(NC(=O)CCNC(=O)NC23CC4CC(CC(C4)C2)C3)c1
 : -2	-2	8	10	-1	?	-0.7
O=C(Cn1cc([N+](=O)[O-])cn1)NC1CCCCCC1
 : -6	-15	5	12	-4	4432	-4.9
Cc1ccc(NC(=O)C2CCN(c3ncnc4sc(C)c(C)c34)CC2)cc1S(=O)(=O)N(C)C
 : -4	-13	-3	5	-4	.	-0.7
C(#CCN1CCOCC1)COCC#Cc1ccccc1
 : 9	-17	6	10	0	10888	3.0
COc1ccc(CCNS(=O)(=O)c2cc3c4c(c2)CCN4C(=O)CC3)cc1
 : 7	-13	15	-2	9	?	6.1
CCCc1c(O)nc(SC2CC(=O)N(c3cc(OC)ccc3OC)C2=O)[nH]c1=O (centres undefined)
 : 3	-26	-4	3	-1	9272	-0.6
CCOC(=O)C1CCCN(CCC(=O)Nc2ccc(F)c(F)c2)C1 (centres undefined)
 : 5	-17	0	8	-5	10004	1.0
O=C1N/C(=C/c2ccc(N3CCOCC3)o2)C(=O)N1c1cccc(Cl)c1
 : 4	-42	9	-1	3	2901	4.8
COc1ccc(NC(=O)COc2nc3ccccc3nc2N2CCOCC2)c(OC)c1
 : 12	-18	4	-1	2	3807	2.7
CCOC(=O)Cn1c(=O)oc2cc(S(=O)(=O)N(C)c3cccc(C)c3)ccc21
 : 2	-1	-2	-2	-1	5396	1.9
O=C(NC1Cc2ccccc2C1)c1cc(COc2ccc(F)cc2Cl)on1
 : -2	-22	-4	0	18	2116	0.0
O=C(NCc1ccc(F)cc1F)Nc1cnccc1C(F)(F)F
 : 12	-13	2	12	-4	5095	4.0
CC(NC(=O)CC1SC(N)=NC1=O)c1ccccc1 (centres undefined)
 : 7	-12	4	0	6	2151	3.0
CCOC(=O)c1cn(CC(=O)Nc2cccc(Cl)c2)nn1
 : -4	-19	-1	-7	-5	1952	8.9
CCN1C(=O)c2cccc3c(S(=O)(=O)NCc4ccccc4)ccc1c23
 : 1	-10	.	5	-6	6535	8.9
Cc1ccc(CN(Cc2cccnc2)C(=O)CN2C(=O)COc3ccccc32)o1
 : 1	-30	-8	1	11	8126	7.3
Cc1nn(-c2ccccc2)c(C)c1CN
 : -5	-38	8	7	-13	4800	-3.8
CCOC1OC(C(=O)NC2CC2)=CC(c2coc3ccccc3c2=O)C1CCCO (centres undefined)
 : -4&18	.	.	0&3	1&10	.	2.7&6.7
O=C(c1ccc(N2C(=O)C3C4c5ccccc5C(c5ccccc54)C3C2=O)cc1)N1CCOCC1 (centres undefined)
 : 2	-22	-3	7	11	3711	3.2
Cc1ccc(C)c(N2CCN(S(=O)(=O)c3ccc4[nH]c(=O)c(=O)[nH]c4c3)CC2)c1
 : 4	-9	9	3	-14	14785	3.7
Cc1cccc(C)c1OCC(=O)N/N=C/c1cccnc1
 : .	9	-10	.	.	3588	.
O=C(CCN1CCCCC1)NN=Cc1ccc(Br)cc1
 : -8	.	.	2	2	.	5.0
COc1cccc(NC(=O)C(=O)c2cn(CC(=O)N3CCCC3)c3ccccc23)c1
 : 6	-20	18	-6	3	4498	-2.1

# An excerpt of these results, as tab-separated lines:
smiles	Mtb hypoxia rep	PrP 5UTR inh	BJeLR viability	Mtb hypoxia rep growth	ugtP null kill	Autofluor counter	Sa RN4220 lethal
Cc1ccc(C)c(N2CCN(S(=O)(=O)c3ccc4[nH]c(=O)c(=O)[nH]c4c3)CC2)c1	4	-9	9	3	-14	14785	3.7
Cc1cccc(C)c1OCC(=O)N/N=C/c1cccnc1	.	9	-10	.	.	3588	.

# Continued.
# Under each structure: Mtb hypoxia rep	PrP 5UTR inh	BJeLR viability	Mtb hypoxia rep growth	ugtP null kill	Autofluor counter	Sa RN4220 lethal
C[n+]1ccccc1/C=C/c1cc(Br)ccc1O
 : 3	-58	-2	3	0	3953	0.6
C(=N\N1CCN(Cc2ccccc2)CC1)/c1ccc(-c2ccccc2)cc1
 : .	5	-2	.	.	1953	.
Cn1nnnc1Sc1ncnc2scc(-c3ccc(Br)cc3)c12
 : 1	-2	.	18	20	2792	11
c1ccc2[nH]c(-c3nc4ccccc4[nH]3)nc2c1
 : 1	-37	24	-1	-10	16481*	-4.0
COc1ccc2cc(C(=O)/C=C/c3cc(OC)c(O)c(OC)c3)ccc2c1
 : 7	-26	-7	6	8	3757	1.1
COc1ccc2nc(C)cc(SCC(=O)NNC(=O)COc3ccccc3)c2c1
 : 22	-20	-5	10	-6	9658	-0.2
CC1CCN(C2CCN(C(=O)c3ccccc3F)CC2)CC1
 : 5	-26	-12	-2	1	.	3.0
CCCCN1C(=O)c2ccc(C(=O)NC3=NCCS3)cc2C1=O
 : .	-4	12	.	0	4512	11
COc1cc(C(=O)Nc2ccccc2SCc2cc(=O)n3nc(C)sc3n2)cc(OC)c1OC
 : 5	-13	-5	-1	4	5246	4.4
CCCCn1c(N)c(N(CC(C)C)C(=O)c2cccc(S(=O)(=O)N3CC(C)OC(C)C3)c2)c(=O)[nH]c1=O (centres undefined)
 : 4	-11	-4	4	-2	?	3.3

# Profiles from above. Values in the order: Mtb hypoxia rep, PrP 5UTR inh, BJeLR viability, Mtb hypoxia rep growth, ugtP null kill, Autofluor counter, Sa RN4220 lethal
# `CCCCN1C(=O)c2ccc(C(=O)NC3=NCCS3)cc2C1=O` as listed: ., -4, 12, ., 0, 4512, 11
# `CCCCn1c(N)c(N(CC(C)C)C(=O)c2cccc(S(=O)(=O)N3CC(C)OC(C)C3)c2)c(=O)[nH]c1=O` (centres undefined) as listed: 4, -11, -4, 4, -2, ?, 3.3

# Among those listed so far, two have a thiophene ring, fused or not:
# Under each structure: Mtb hypoxia rep	PrP 5UTR inh	BJeLR viability	Mtb hypoxia rep growth	ugtP null kill	Autofluor counter	Sa RN4220 lethal
Cc1ccc(NC(=O)C2CCN(c3ncnc4sc(C)c(C)c34)CC2)cc1S(=O)(=O)N(C)C
 : -4	-13	-3	5	-4	.	-0.7
Cn1nnnc1Sc1ncnc2scc(-c3ccc(Br)cc3)c12
 : 1	-2	.	18	20	2792	11

# New compounds follow.
# Under each structure: Mtb hypoxia rep	PrP 5UTR inh	BJeLR viability	Mtb hypoxia rep growth	ugtP null kill	Autofluor counter	Sa RN4220 lethal
CC(C)Oc1ccc(OCCSc2nc3ccccc3n2CC(=O)O)cc1
 : 3	-10	-8	7	3	3536	2.7
Cc1cc(C)n(C(=O)c2ccc(Cn3nc(C)c(Br)c3C)o2)n1
 : 12	-28	-5	14	-13	23364*	3.1
Cc1ccc(Nc2nnc(C)c(=O)[nH]2)cc1
 : 3	-1	7	3	-1	4751	-2.7
COC(=O)C1C(=O)CC(C)(O)C(C(=O)OC)C1/C=C/c1ccccc1 (centres undefined)
 : .	-20	-1	.	.	3300	.
O=C(CCc1nnc2n(Cc3ccccc3Cl)c(=O)c3ccccc3n12)NCCCN1CCOCC1
 : -6	-18	-10	1	0	5656	1.7
O=C(Nc1ccc(Cc2ccncc2)cc1)C1CCC(N2C(=O)C3CC=CCC3C2=O)CC1 (centres undefined)
 : 0	-27	-1	3	4	6053	2.2
COc1ccc(-c2csc(NC(=O)Cn3nc(C)cc3C)n2)cc1
 : .	-15	18	.	11	4128	-5.9
COc1ccc(N(N=C2Sc3ccccc3C2=O)C(C)=O)cc1
 : 6	.	.	0	2	.	7.4
CCN(CC)CCN(C(=O)c1ccc(S(=O)(=O)N(C)C2CCCCC2)cc1)c1nc2ccc(OC)cc2s1
 : 3	-4	-5	7	5	5029	0.4
Cc1cccc(NC(=S)NC(=O)CC2CC(C)(C)OC2=O)c1 (centres undefined)
 : 18	-31	-4	4	10	2280	2.8
CCOC(=O)N1CCN(C(=O)CCSCCc2ccncc2)CC1
 : -6	-4	-2	-9	-6	2381	4.7
COc1ccc2c(c1)CCc1c(C(=O)Nc3ccn(Cc4ccc(C)cc4)n3)noc1-2
 : 4	.	-1	3	2	11077	3.0
CN(C(=O)CSc1nc2cc([N+](=O)[O-])ccc2n1-c1ccc(F)cc1)C1CCS(=O)(=O)C1 (centres undefined)
 : 9	-30	-3	2	5	2082	4.6
N#C/C(=C/c1ccc(N2CCOCC2)o1)c1ccc(Cl)cc1
 : 4	-121	-10	4	-7	14113	18
COc1ccc(CC(=O)Nc2ccc(C(C)=O)cc2)cc1
 : 3	-32	7	-1	-1	3674	4.0
O=C(NCC(c1ccco1)N1CCN(c2ccccc2F)CC1)C(=O)NC1CC1 (centres undefined)
 : 3	-6	3	-5	11	.	4.6
COc1ccccc1/C=C1\SC(=S)N(CCC(=O)N2CCN(C)CC2)C1=O
 : 0	-2	3	-7	7	4652	-0.4
COc1ccc(CN2CCN(C(C)C(=O)N(C)Cc3cccc(F)c3)CC2)cc1OC (centres undefined)
 : 14	-9	0	8	1	3285	0.9
Cc1sc2ccc3sccc3c2[n+]1C
 : -11	-11	-3	4	41	2273	4.2
CCN(CC)S(=O)(=O)c1ccc(NC(=O)COc2c(OC)cccc2OC)cc1
 : 2	-16	2	6	3	3827	3.6
COc1cccc(/C=N/n2c(SC)nnc2-c2ccccc2)c1O
 : .	-20	-4	.	.	2479	.
Cc1ccccc1NC(=S)N(Cc1ccccn1)Cc1ccccc1Cl
 : 13	-15	-4	-6	9	3853	15
Cn1c(O)c(/C=C2\N=c3ccccc3=C2CCNC(=S)NC2CC2)c(=O)n(C)c1=O
 : 11	-10	-2	5	-4	4284	3.0
Cc1cc(C)cc(Oc2nc(C(F)(F)F)nc3ccccc23)c1
 : .	-32	7	.	15	2111	-7.1
COCCn1c(=S)[nH]c2cc(C(=O)N(CCO)Cc3ccccc3)ccc2c1=O
 : -3	-18	1	8	3	5247	0.7
O=C(Nc1ccccc1-c1ccccc1)C1CCCN(c2ncccn2)C1 (centres undefined)
 : 1	-7	0	2	-2	16368*	1.3
COC(=O)c1ccc(N2C(=O)CC(N(C)CCc3ccc(OC)c(OC)c3)C2=O)cc1 (centres undefined)
 : 24	-10	3	2	0	2526	-3.3
CCc1nnc(NC(=O)C2CCN(S(=O)(=O)Cc3ccccc3)CC2)s1
 : 4	-19	.	0	3	4678	3.2
